D2 agonist = agonists of human D2 dopamine receptor (beta-arrestin) | P14416 | AID 624465 | actives 0.084% (n = 360,000) | activation, % (concentration not given with the values) | DiscoveRx PathHunter D2 beta-arrestin, luminescence, 90 min; 100% = 57 uM dopamine signal; in the data active = activation above about 40%; inconclusive = about 15% to 40%; inactive = below about 15%; note: compound concentration not given in the record; the text of the record calls up to 30% inactive
Target sequence (P14416 whole entry, looked up): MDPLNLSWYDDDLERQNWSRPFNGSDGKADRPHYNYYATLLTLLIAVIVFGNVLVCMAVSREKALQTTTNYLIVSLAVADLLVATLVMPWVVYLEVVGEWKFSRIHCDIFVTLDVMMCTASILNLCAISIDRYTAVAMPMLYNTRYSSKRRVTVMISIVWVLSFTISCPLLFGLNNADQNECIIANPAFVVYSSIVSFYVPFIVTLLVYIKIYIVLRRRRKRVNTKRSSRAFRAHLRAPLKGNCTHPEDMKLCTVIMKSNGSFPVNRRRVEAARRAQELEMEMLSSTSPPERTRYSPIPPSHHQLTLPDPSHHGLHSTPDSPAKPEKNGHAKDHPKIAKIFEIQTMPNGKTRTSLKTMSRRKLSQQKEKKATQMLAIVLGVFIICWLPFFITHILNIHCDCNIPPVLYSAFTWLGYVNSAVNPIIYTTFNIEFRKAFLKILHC
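DiscoveRx PathHunter D2 beta-arrestin cells (2,100/well) attached overnight, then compound-stimulated 90 min at 37 C in HBSS/10 mM HEPES/0.1% Tween-20 buffer; beta-galactosidase complementation read by luminescence after 1 h at ambient temperature. Dopamine 57 uM final (EC100) as control.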
TRPML1 agonist = activates the human TRPML1 channel; Q9GZU1; TRPML1-expressing cells, Ca2+ dye fluorescence, FDSS; host cell line not named in the record; reference of the full effect not given here; activation, % (test concentration not listed); actives 0.12% (n = 410,000); AID 624414; in the data active = activation above about 50%; inconclusive = about 30% to 50%; inactive = below about 30%; note: 0% is about no effect; the text of the record puts the active cut at 80%
Target sequence (Q9GZU1 whole entry, looked up): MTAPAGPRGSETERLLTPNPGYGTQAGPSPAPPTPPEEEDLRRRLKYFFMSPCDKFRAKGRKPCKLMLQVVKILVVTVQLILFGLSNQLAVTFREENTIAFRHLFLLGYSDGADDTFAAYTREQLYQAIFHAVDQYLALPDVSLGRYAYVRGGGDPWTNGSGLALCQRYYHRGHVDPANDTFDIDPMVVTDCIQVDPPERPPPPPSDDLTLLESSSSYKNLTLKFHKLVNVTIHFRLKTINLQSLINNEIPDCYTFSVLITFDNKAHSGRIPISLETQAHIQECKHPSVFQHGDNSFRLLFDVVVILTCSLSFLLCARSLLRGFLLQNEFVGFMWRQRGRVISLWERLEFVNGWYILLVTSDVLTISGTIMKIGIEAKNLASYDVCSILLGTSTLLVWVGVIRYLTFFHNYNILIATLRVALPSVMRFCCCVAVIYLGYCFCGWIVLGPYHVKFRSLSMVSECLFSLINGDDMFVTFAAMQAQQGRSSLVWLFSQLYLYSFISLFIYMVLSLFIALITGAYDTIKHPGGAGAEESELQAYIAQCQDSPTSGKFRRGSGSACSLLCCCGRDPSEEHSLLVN
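In this qHTS format, compounds were pin-transferred onto Ca8-dye-loaded TRPML1-DL cells induced with Tet overnight, and intracellular Ca2+ fluorescence was recorded kinetically for 110 s after a 10 s baseline. A subsequent 4uM final 54-4 (EC80) addition followed by a second 110 s read served as the antagonist phase.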
PINK1 modulator = PINK1 expression modulation; AID 624263; actives 0.2% (n = 410,000); Potency, µM (series often up to 76.6 µM), for the others: at the highest dose activation (PINK1 increase), actives largely listed as activators; PINK1 immunofluorescence, high-content cytometry, 24 h; active = well fitted activation curve with a large enough effect; inconclusive = small, poorly fitted or top-dose-only effect; inactive = flat fitted curve, though single readings scatter; cell line not stated here;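 note: potency is the fitted concentration of half-maximal effect; % of control where 0% means no effect; nearly all actives have a fitted effect of over 65% in size; a mitochondrial uncoupler was the plate control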
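Compound titrations (5 concentrations, 24 h) on a stable cell line; DMSO and CCCP controls. Endpoint: fixed-cell PINK1 immunofluorescence with mitochondrial, cell and nuclear markers, scanned by microplate cytometer.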
CtBP-E1A blk = CtBP/E1A binding inhibition; activity change, % (no concentration beside the values); AlphaScreen GST-E1A/His-CtBP binding, 1536-well; stronger effect = lower value; control for the full effect not named in the record; actives 0.49% (n = 340,000); in the data active means activity change below about -65%; inconclusive means about -30% to -65%; inactive means above about -30%; note: % is set by controls: 0 for no effect and ±100 for the full control effect; compound concentration not given in the record
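Protein mix (5X: 125 nM each GST-E1A, His-CtBP) was incubated with pinned compound 2 h at 37 deg C in dark, in 50 mM Tris pH 8.0 buffer with 300 mM NaCl. Glutathione donor and nickel acceptor beads followed; AlphaScreen signal read after 1 h.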
D2 PAM = positive allosteric modulators of human D2 dopamine receptor; AID 624464; actives 0.23% (n = 360,000); potentiation, % (concentration not given with the values); DiscoveRx D2 beta-arrestin cells, luminescence, 90 min; 100% = 57 uM dopamine signal; active = potentiation of 50% or more; inconclusive = 30% to 50%; inactive = 30% or less;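 note: compound concentration not given in the record; tested on top of an EC20 dose of dopamine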
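PathHunter D2 cells, attached overnight at 37 deg C, received compound in DMSO plus dopamine at EC20 (50 nM final) for 90 min at 37 deg C. Beta-arrestin recruitment was read as luminescence after 1 h with detection reagent at ambient temperature.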
Six1-Eya2 blk = Six1/Eya2 interaction inhibition. actives 0.56% (n = 360,000). activity change, % (no concentration beside the values). AlphaScreen GST-Six1/His-Eya2 binding, biochemical; stronger effect = lower value; control for the full effect not named in the record; in the data active = activity change below about -65%; inconclusive = about -30% to -65%; inactive = above about -30%; note: % is set by controls: 0 for no effect and ±100 for the full control effect; compound concentration not given in the record
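GST-Six1 + His-Eya2 (5X stock: 250/500 nM); Tris pH 8.0, 300 mM NaCl, 0.05% BSA, 0.02% Tween 20; GSH donor/Ni acceptor beads; 1 h 37 °C dark; AlphaScreen readout.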
The depositor's hits bear a star; u = inconclusive; x = not tested or not shown; & = joins results of further samples; [ ] = remark or other dose.

SMILES	D2 agonist	TRPML1 agonist	PINK1 modulator	CtBP-E1A blk	D2 PAM	Six1-Eya2 blk
COc1c(C(C)C)cc(NC(C)=O)cc1C(C)C	-6.2	0.9	1.0%	2.5	-11.6	-2.5
COc1ccccc1C(=O)Nc1ccnn1C1CCN(Cc2cc(C)c(C)cc2C)CC1	-5.5	1.5	27.1%	-4.6	-36.0	-3.5
Cc1nn(CCCC(=O)N2CCc3ccccc3C2)c(=O)c2cc3sccc3n12	-6.4	-0.1	2.4%	-1.1	-9.2	2.5
O=C(Nc1ccccc1)c1ccc2c(c1)OCCCO2	2.9	0.7	-0.2%	1.5	-8.3	6.1
Cc1oc(-c2ccccc2F)nc1CN1CCC(C(=O)NCc2cccs2)CC1	1.0	-1.0	-1.3%	21.8	-2.4	7.4
O=C(NCc1ccc2c(c1)OCO2)c1ccc2c(c1)C(=O)N(CC1CCCO1)C2=O (stereo unspecified)	-2.2	1.0	-0.8%	0.3	-18.0	3.5
CSc1ccccc1NC(=O)CN(C)CC(=O)Nc1ccc(N2CCOCC2)cc1	0.4	1.4	0.9%	-2.8	-1.8	-1.2
O=C(NCCN1CCOCC1)c1cccc(S(=O)(=O)Nc2ccc(Br)cc2)c1	8.7	-0.6	-0.3%	-6.4	-4.8	-4.2
CCNc1nc(NC(C)C)nc(N(C#N)CC(=O)OC)n1	1.6	-0.3	0.0%	0.9	-21.9	-3.4
O=C1CCC([N+](=O)[O-])C(c2cccc3ccccc23)N1 (stereo unspecified)	3.9	-0.4	-0.6%	-9.4	-7.5	-0.9
COc1cc(C=O)ccc1OCCCOc1ccc([N+](=O)[O-])cc1	3.7	2.4	1.8%	0.6	-8.9	2.7
CCc1ccccc1OCC(=O)Nc1cc(S(=O)(=O)N2CCOCC2)ccc1N1CCCCC1	-5.7	0.2	4.3%	-5.7	-3.7	-18.6
CCCCOc1ccc(OC(=O)Nc2cc(Cl)ccc2OC)cc1	-3.4	0.9	0.8%	x	-0.6	4.3
CCc1ccc(CN2CCCC(C(=O)Nc3ccc(-c4cscn4)cc3)C2)o1 (stereo unspecified)	-1.3	0.7	-1.3%	-9.1	-20.8	-9.7
O=C(Nc1ccccc1)c1nn(-c2cccc(C(F)(F)F)c2)ccc1=O	-2.8	0.9	1.3%	-20.4	-14.5	-21.6
O=C(CSc1nc2ccc([N+](=O)[O-])cc2[nH]1)NC1CCCC1	-0.5	1.4	0.2%	1.4	1.4	-4.0
CSCCC(NC(=O)c1ccc(Cl)cc1Cl)C(=O)OC(C)C(=O)NCc1ccco1 (stereo unspecified)	-3.5	0.5	3.7%	5.0	-29.5	-10.7
CC(O)CNCc1ccc(Cl)cc1Cl (stereo unspecified)	-1.4	-0.2	-0.4%	-22.0	-8.2	-4.3
Cc1[nH]c(=S)[nH]c(=O)c1CCOc1ccccc1	0.0	0.5	0.1%	0.1	-17.1	3.0
CC(NC(N)=O)C(=O)NCC(=O)OCc1ccccc1 (stereo unspecified)	-1.2	1.0	1.8%	x	-0.7	-1.9

Continued, starting with the last 2 of the part before.
SMILES	D2 agonist	TRPML1 agonist	PINK1 modulator	CtBP-E1A blk	D2 PAM	Six1-Eya2 blk
Cc1[nH]c(=S)[nH]c(=O)c1CCOc1ccccc1	0.0	0.5	0.1%	0.1	-17.1	3.0
CC(NC(N)=O)C(=O)NCC(=O)OCc1ccccc1 (stereo unspecified)	-1.2	1.0	1.8%	x	-0.7	-1.9
CC(C)Oc1cccc(NC(=O)C2(C)CCN2C(=O)C(C)C)c1 (stereo unspecified)	-2.2	-1.0	0.7%	11.9	-2.6	1.6
O=c1n(CC2CO2)c(=O)n(CC2CO2)c(=O)n1CC1CO1 (stereo unspecified)	3.9	-0.2&-0.7	1.0%&-0.9%	11.4	15.2	2.2
Cc1ccc(S(=O)(=O)Nc2nc3ccccc3nc2NCc2ccco2)cc1	1.3	0.8	1.9%[38.3 µM]	10.8	-3.3	-0.7
COc1ccc(-n2nnc3c(=O)n(CC(=O)OCc4ccccc4)cnc32)cc1	-1.1	0.0	0.0%	6.7	-3.3	2.0
O=C(Cc1cccc(F)c1)N1CCOCC1	-3.7	-0.1	0.7%	9.0	-2.6	-6.4
O=C(NCCc1ccccc1)c1cc(S(=O)(=O)N2CCOCC2)ccc1F	-0.9	0.6	-4.1%	-12.4	-2.0	1.2
O=C(CNc1ccccc1)N/N=C/c1ccc([N+](=O)[O-])o1	2.3	0.3	u	-22.2	8.8	-15.1
CCCS(=O)(=O)N1CCC(C(=O)N2CCN(C(=O)OCC)CC2)CC1	-1.7	0.0	-1.4%	4.4	-3.9	1.5
COC(=O)c1sccc1NC(=O)/C=C/c1ccc(Cl)cc1Cl	-0.5	0.5	6.1%	-5.7	-0.3	9.3
COc1cccc(/C=C/c2n[nH]c(=O)c(C#N)c2C)c1	0.7	-0.3	0.9%	-4.1	-3.4	5.5
CCN1CCCC1CNC(=O)c1cc(COc2ccc(C)c(C)c2)on1 (stereo unspecified)	-5.1	0.2	-1.6%	-8.9	-30.8	1.7
Clc1cccc(-c2nnc(SC/C=C/c3ccccc3)n2Cc2ccco2)c1	-3.5	1.8	-1.6%[38.3 µM]	-4.1	-13.9	-10.6
Cc1cc(C(=O)CSc2nc(N)cc(=O)[nH]2)ccc1F	-11.8	1.7	-3.1%	-16.4	-6.6	3.1
O=C(NCC1CC1)Nc1cccs1	-5.5	-0.5	1.4%	x	-20.9	0.8
COc1cccc(/C=C/C(=O)OCC(=O)Nc2ccc(Cl)c(S(=O)(=O)N(C)C)c2)c1	-3.2	1.3	0.8%	u	0.2	-13.7
Cn1ncc(Cl)c1C(=O)NCc1ccc2c(c1)OCO2	5.3	-0.1	-1.6%	5.2	-1.5	-0.3
O=C(COC(=O)Cc1cccc(C(F)(F)F)c1)NCC1CCCO1 (stereo unspecified)	-1.1	-0.1	0.3%[38.3 µM]	5.6	-1.6	4.0
CCC(=O)Nc1ccccc1C(=O)OCc1ccc(C(=O)c2ccccc2)cc1	0.4	2.8	-0.3%[38.3 µM]	23.0	2.3	17.9
CC(=O)NCCc1nc2ccccc2n1Cc1cccc(C)c1	1.5	-1.1	-1.7%	2.1	0.6	2.5
CCOc1ccc(/C=N/n2c(SC)nnc(C(C)(C)C)c2=O)cc1	-2.8	0.5	14.6%	1.4	-27.1	-4.7

Entries above containing an NH in an aromatic ring:
SMILES	D2 agonist	TRPML1 agonist	PINK1 modulator	CtBP-E1A blk	D2 PAM	Six1-Eya2 blk
O=C(CSc1nc2ccc([N+](=O)[O-])cc2[nH]1)NC1CCCC1	-0.5	1.4	0.2%	1.4	1.4	-4.0
Cc1[nH]c(=S)[nH]c(=O)c1CCOc1ccccc1	0.0	0.5	0.1%	0.1	-17.1	3.0
COc1cccc(/C=C/c2n[nH]c(=O)c(C#N)c2C)c1	0.7	-0.3	0.9%	-4.1	-3.4	5.5
Cc1cc(C(=O)CSc2nc(N)cc(=O)[nH]2)ccc1F	-11.8	1.7	-3.1%	-16.4	-6.6	3.1

Additional results.
SMILES	D2 agonist	TRPML1 agonist	PINK1 modulator	CtBP-E1A blk	D2 PAM	Six1-Eya2 blk
O=C(O)c1ccc(N/N=C/c2cc(Br)cs2)cc1	-3.0	-0.9	0.7%	-15.8	7.0	-16.5
Cc1ccc(NC(=O)Cc2nc(COC(=O)Cc3cccc(C(F)(F)F)c3)cs2)cc1	2.9	3.0	1.8%	-0.1	-2.3	-1.5
CCCCC(=O)NC(c1ccccc1Cl)c1c(O)ccc2ccccc12 (stereo unspecified)	-4.3	2.3	u	3.3	-4.3	3.6
CN(C)S(=O)(=O)N(CC(=O)Nc1ccccc1)c1ccccc1	-0.3	0.0	-3.1%	-0.7	-1.3	8.3
N#CC1=C(N)OC2=C(C(=O)CCC2)C1c1ccncc1 (stereo unspecified)	-1.1	0.4	-0.1%	0.8	-19.8	-7.1
Cc1cccc(N2C(=O)/C(=C\c3ccc(OC(F)F)cc3)c3ccccc3C2=O)c1	1.3	1.1	6.8%	2.2	-1.3	0.7
O=C(COc1ccc([N+](=O)[O-])cc1Cl)N1CCc2ccccc21	3.1	1.0	4.1%	-24.0	-10.1	-21.2
Cc1ccc(Cl)cc1N1CCN(C(CC(C)C)c2nnnn2CC2CCCO2)CC1 (stereo unspecified)	0.6	0.2	8.2%	-2.8	-18.6	-5.4
Cc1cc(C)c2nc(SCC(=O)NCC3CCCO3)c(C#N)cc2c1 (stereo unspecified)	-4.6	0.1	0.4%	-8.8	-9.3	-0.1
CCN(C(=O)COC(=O)c1c2c(nc3ccccc13)/C(=C/c1ccccc1)CC(C)C2)C1CCS(=O)(=O)C1 (stereo unspecified)	-4.6	0.4	0.7%	0.0	-8.9	10.5
Cc1c(CC(=O)O)c(=O)oc2c(C)c(OCc3ccccc3)ccc12	-7.7	x	-0.4%	7.6	0.4	-7.4
Oc1ccc(F)c2cccnc12	0.6	2.7	0.9%	0.8	10.6	-81.4*
Cc1cc(C)c(NC(=O)CS(=O)CC(=O)NC2CCCc3ccccc32)c(C)c1 (stereo unspecified)	-2.7	0.1	-3.3%	-8.0	0.0	-12.3
O=C1N=C(N2CCCCC2)SC1=C1CCCC1	-0.4	1.2	2.4%[38.3 µM]	8.3	-6.1	-0.4
O=C(O)CSc1ncccc1C(=O)O	-5.2	0.1	-2.4%	-7.5	-12.9	7.9
Cc1cc(C)n2nc(CC(=O)NC3CCCCCC3)nc2n1	0.9	-0.2	-1.9%[38.3 µM]	11.4	7.9	8.3
Cc1ccc(S(=O)(=O)NCc2nnnn2-c2ccc(F)cc2)cc1	-1.2	-0.9	-0.6%	4.5	-17.1	-6.0
COc1ccc(S(=O)(=O)N[C@@H](Cc2ccccc2)C(=O)N2CC[C@@]3(O)CCCC[C@H]3C2)cc1	-0.6	-0.1	2.8%	3.7	8.8	9.9
CC(=O)Cc1nsc(NC(=O)c2cc(-c3cccc(C(F)(F)F)c3)oc2C)n1	-0.7	0.0	14.9%[38.3 µM]	-12.8	-0.7	-3.7
Cn1c(-c2cc3ccccc3oc2=O)nc2ccccc21	-4.7	1.6	0.2%	-14.9	-7.0	3.1
CN(C)C1=NC[C@H](Cc2ccccc2)N1CCCCc1ccccc1	0.9	0.7	1.1%	-0.5	-15.9	1.9
CC(=O)c1ccc(NC(=O)C(Cc2ccccc2)n2cccc2)cc1 (stereo unspecified)	1.8	x	1.9%	13.7	1.6	1.5
Cc1cc(-c2n[nH]c(=S)n2/N=C/c2ccc(Br)s2)n[nH]1	5.2	1.9	-0.3%	-18.1	2.1	-19.2
CCSc1nc2sc3c(c2c2[n+]1CC(CBr)O2)CCCC3 (stereo unspecified)	-1.6	-0.2	-0.1%	-8.5	-2.4	-0.7
OCCN(Cc1ccccc1)Cc1ccc(C(F)(F)F)cc1	-4.6	2.5	-0.2%	6.1	-13.4	6.5
COc1cccc(OC)c1OCCCCN1CCCC1	0.4	-0.3	0.0%	2.9	-30.6	10.0
COC(=O)c1ccc(-n2nnnc2SCC(=O)Nc2ccccc2F)cc1	-1.5	0.4	6.6%	-2.2	-2.2	4.0
O=C(N/N=C\c1cn[nH]c1-c1ccccc1)c1cccnc1	-0.6	-0.2	x	7.9	-9.9	-9.1
